Rango-impB inh = Rango-importin beta binding inhibition. Potency, µM (top dose mostly 92.2 µM), for inactives: at the top dose inhibition of complex formation. AID 540263. Rango CFP/YFP FRET sensor + importin beta, 45 min. 340,000 compounds, 0.031% hits; active = rising FRET ratio curve, often small or poorly fitted; inconclusive = mostly compound fluorescence or quenching in the first reads; inactive = flat curves in all reads;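 also: potency is read from the fitted curve at half-maximal effect; 0% = DMSO wells and 100% = buffer wells lacking importin beta; nearly all actives have a fitted effect of over 15% in size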
Target sequence (Q14974 whole entry, looked up): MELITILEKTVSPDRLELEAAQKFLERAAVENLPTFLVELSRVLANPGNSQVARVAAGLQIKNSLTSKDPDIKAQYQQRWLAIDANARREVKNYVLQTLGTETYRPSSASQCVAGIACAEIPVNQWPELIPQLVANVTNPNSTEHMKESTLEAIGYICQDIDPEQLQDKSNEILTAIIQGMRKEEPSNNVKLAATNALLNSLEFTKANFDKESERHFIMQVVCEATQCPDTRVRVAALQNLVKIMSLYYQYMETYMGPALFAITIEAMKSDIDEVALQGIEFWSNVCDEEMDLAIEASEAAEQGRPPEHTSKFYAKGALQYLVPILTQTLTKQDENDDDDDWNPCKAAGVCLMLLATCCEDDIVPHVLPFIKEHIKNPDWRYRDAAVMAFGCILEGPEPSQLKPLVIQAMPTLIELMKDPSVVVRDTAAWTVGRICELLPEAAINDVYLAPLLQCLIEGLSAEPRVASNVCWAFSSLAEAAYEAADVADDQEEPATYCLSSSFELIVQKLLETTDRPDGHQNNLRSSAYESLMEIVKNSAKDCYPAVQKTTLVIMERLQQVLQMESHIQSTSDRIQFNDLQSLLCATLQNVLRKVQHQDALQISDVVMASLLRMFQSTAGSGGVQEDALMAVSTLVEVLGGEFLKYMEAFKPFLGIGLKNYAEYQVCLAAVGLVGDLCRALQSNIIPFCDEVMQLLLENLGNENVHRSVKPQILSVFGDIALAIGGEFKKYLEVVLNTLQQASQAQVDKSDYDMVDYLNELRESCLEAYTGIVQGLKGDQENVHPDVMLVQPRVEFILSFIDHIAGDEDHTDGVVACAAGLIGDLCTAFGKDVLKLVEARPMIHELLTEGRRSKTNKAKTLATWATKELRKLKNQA
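FRET biosensor Rango (snurportin 1 IBB between N-terminal EYFP and C-terminal Cerulean), 50 nM in PBS/1 mM DTT/0.02% Tween-20/0.1% BSA, preincubated 5 min RT with compound; 0.125 microM importin beta added, 45 min RT, CFP/YFP FRET ratio read.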
Rango release inh = inhibition of RanGTP-driven Rango-importin beta dissociation | Potency, µM (top dose mostly 46.1 µM), for the others: at the highest dose activity change, negative = inhibition | AID 540253 | 340,000 compounds, 0.071% hits | Biochemical FRET Rango-importin beta, RanGTP-induced dissociation | O95149+P62826; active means falling FRET ratio curve, often poorly fitted, with flat reads before Ran was added; inconclusive means other falling curves, or compound fluorescence or quenching; inactive means flat or rising ratio curve;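 also: potency is read from the fitted curve at half-maximal effect; % of control where 0% means no effect; nearly all actives have a fitted effect of over 45% in size; -100% = wells without RanGTP and RCC1; the record marks most hits as doubtful in a second field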
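Quantitative HTS using a FRET biosensor: 0.1 uM Rango, 0.25 uM importin beta, 0.6 uM Ran, 2 mM GTP, 0.2 uM RCC1 final, PBS with DTT, Tween-20 and BSA. Post-read taken 45 min after Ran addition.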
GLA inh pH 4.5 = inhibitors of human alpha-galactosidase A at pH 4.5; purified enzyme, 4-MU-alpha-Gal fluorescence, pH 4.5; 230,000 tested, under 10 active; activity change, negative = inhibition, % at 105 µM; AID 1467; P06280; inconclusive = small, poorly fitted or top-dose-only inhibition, or a rising curve; inactive = flat fitted curve, though single readings scatter; no compound was filed as active;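 also: 0% = full activity with enzyme and -100% = basal without enzyme; dose as in the result columns while the protocol names 77 µM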
miR-21 reporter = miR-21 reporter, rising signal; Potency, µM (series often up to 38.3 µM), for inactives: at the highest dose reporter change, positive = more light; HeLa miR-21 FLuc reporter, luciferase, 48 h; 340,000 tested, under 10 active; AID 2288; active = well fitted rising curve with a large enough effect; inconclusive = small, poorly fitted or top-dose-only effect; inactive = no such curve, though single readings can be large or run the other way;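 also: % of control where 0% means no effect; miR-21 action dims this reporter so a rising signal means less miR-21 action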
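Luminescence from a firefly luciferase reporter carrying a miR-21 binding site downstream, stably expressed under a CMV promoter in HeLa cells that make miR-21 endogenously, reports miRNA modulation after 48 h compound exposure up to approximately 40uM final.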
Numbers without * were called inactive; ? = inconclusive; / = not tested or not shown; & = joins results of further samples. This is a subset; rates above refer to the full screens.

SMILES	Rango-impB inh	Rango release inh	GLA inh pH 4.5	miR-21 reporter
Cc1ccc(C(C)C)c(OCc2n[nH]c(=S)o2)c1	0.5%	-15%	8	0%
NC(=O)c1ccc(NC(=O)COC(=O)CCSc2ccccc2)cc1	-1.5%	3%	-9	2%
COc1ccc(S(=O)(=O)N2CCN(c3ncnc4c(-c5ccccc5)nsc34)CC2)cc1	2.9%	2%	6	-10%
Cc1noc(C)c1COc1ccccc1C(=O)N(C)CC(=O)Nc1cccc(F)c1	-4.4%	13%	/	/
Cc1ccc(C)c(N2CCN(C(=O)C3CCCN(S(=O)(=O)c4c(C)noc4C)C3)CC2)c1 (configuration not stated)	-3.0%	0%	-4	8%
CCCc1c(C)c2c(C)[nH]nc2oc1=O	3.4%	3%	0	-18%
O=C(Nc1cccc(Cl)c1)O/N=C\c1ccncc1	?	10%	-3	-9%
CS(=O)(=O)c1ccc2nc(NC(=O)C3CCCO3)sc2c1 (configuration not stated)	-8.0%	23%	4	-9%
CC1CCN(CCCn2c(=S)[nH]c3c(sc4ccccc43)c2=O)CC1	1.2%	8%	0	-27%
O=C(COC(=O)c1cc(=O)[nH]c2ccccc12)Nc1nccs1	-3.4%	1%	-2	-12%
NC(=O)Cn1c(=O)n(Cc2ccccc2)c(=O)c2cccnc21	0.7%	0%	/	1%
Cc1cc(=O)[nH]c(SCCCOc2ccc(F)cc2)n1	4.2%	3%	1	-7%
O=C1NC(=O)C(c2ccccc2)(C2CCCC2)N1 (configuration not stated)	3.8%	-7%	/	/
COc1ccc(CNC(=O)C[C@H]2C[C@H](C(=O)N3CCOCC3)[C@@]3(CCC4CCCC4)c4[nH]c5ccc(Cl)cc5c4CCN3C2=O)cc1OC	0.0%	0%	/	/
O=C1C2CC=C(Cl)CC2C(=O)N1CCN1CCOCC1 (configuration not stated)	-1.2%	?	4	-4%
c1ccc(-c2nc3cnccn3c2Nc2ccc3c(c2)OCCO3)cc1	-3.0%	-22%	-4	-12%
O=C(O)c1cccc(-n2cccc2/C=C2/NC(=O)N(c3ccc(Cl)cc3)C2=O)c1	?	16µM*	-2	-13%
COc1ccccc1OCC(=O)O	1.0%&-0.8%	8%&-4%	2&2	-6%&-4%
CCc1nc(SCC(=O)Nc2ccc(C(=O)O)cc2)n[nH]1	-0.5%	15%	4	-3%
COc1ccc(O)c(-c2cc(-c3ccccc3Cl)[nH]n2)c1	0.7%	-6%	/	-37%
COc1ccccc1C(=O)NCC(=O)OCC(=O)Nc1cccc(S(=O)(=O)N(C)C)c1	2.6%	1%	3	0%
COc1cc(-c2nnc(COc3ccc(Cl)cc3C)o2)cc(OC)c1OC	2.9%	-4%	-1	-3%
CCN1CCN(CCC(=O)Nc2cc(C)ccc2C)CC1	-0.4%	1%	/	-1%
CCCCc1nc2n[nH]c(N)c2c2c1CCCC2	-0.3%	6%	6	-31%
COCCN(C(=O)CNC(=O)c1ccco1)C(C(=O)NC1CCCCC1)c1cccs1 (configuration not stated)	-2.7%	1%	-2	-8%

Additional structures:
SMILES	Rango-impB inh	Rango release inh	GLA inh pH 4.5	miR-21 reporter
CN(Cc1nc(-c2cnccn2)no1)CC1(c2ccccc2)CC1(C)C (configuration not stated)	0.0%	-6%	-1	0%
CCOC(=O)CSc1nnc(-c2cccnc2)o1	-2.5%	9%	0	-3%
CC(OC(=O)CCC(=O)N1CCN(S(=O)(=O)c2ccc3ccccc3c2)CC1)C(=O)NC(N)=O (configuration not stated)	2.2%	19%	/	1%
O=C1CC(c2cccc(Oc3ccccc3)c2)NC(=O)N1 (configuration not stated)	?	6%	8	-3%
Brc1ccc2oc3c(N4CCOCC4)ncnc3c2c1	3.5%	-4%	5	-63%
CC(C)c1nc2c(s1)CCc1onc(-c3ccc(Cl)cc3)c1-2	4.1%	18%	/	/
Cc1ccc(NC(=O)c2cccc(C(=O)OC(C)C)n2)c(Br)c1	-3.1%	6%	-3	-12%
CC(=O)N1CCc2cc(Br)cc(S(=O)(=O)N3CCCCCC3)c21	-2.2%	1%	0	5%
N#C/C(=C\C=C\c1ccccc1)C(=O)Nc1ccccc1	?	-5%	-6	-4%
C[C@H](NC(=O)c1nc[nH]c1C(=O)NC(c1ccccc1)c1ccccc1)C(=O)OC(C)(C)C	0.2%	2%	?	19%
COc1ccc(NC(=O)CSc2nnc(-c3ccc(C)cc3)n2N)cc1	-0.5%	1%	5	-3%
CCCCN(NC(C)=O)c1nc(Cl)nc(NC(C)C)n1	2.7%	10%	3	-3%
OCCNc1nc(Nc2ccccc2Cl)nc(N2CCCC2)n1	-1.8%	-14%	/	/
Cc1ccc(-c2nn3c(C)nnc3s2)cc1NC(=O)c1ccc(OC(C)C)cc1	-4.0%	0%	-4	12%
COC(=O)c1nnn(Cc2ccccc2)c1N	0.7%	11%	-11	-2%
COc1ccc(CCNC(=O)CSc2nc(-c3ccco3)cc(C(F)(F)F)n2)cc1	-2.6%	-18%	-9	-3%
COc1cccc(Sc2nc(-c3ccccc3)ncc2S(C)(=O)=O)c1	1.8%	0%	/	-34%
COc1ccc(CN2C(=O)N(c3ccccc3)C(=O)C2CC(=O)Nc2ccccc2)cc1OC (configuration not stated)	-3.3%	2%	0	1%
Cc1onc(-c2ccccc2Cl)c1C(=O)OCC(=O)Nc1ccc2c(c1)OCO2	0.2%	-13%	-2	2%
Cc1sc(=NC(=O)c2ccco2)n(C)c1-c1ccccc1	-0.8%	-7%	2	-7%
CCOC(=O)C1CCc2nc3ccccc3c(=O)n21 (configuration not stated)	-1.2%	-7%	2	1%
CCOc1cc(/C=C2/C(=N)N3N=C(CC)SC3=NC2=O)ccc1OC(=O)c1ccco1	?	?	/	6%
COc1ccccc1N1CCN(CC(O)COCc2cccs2)CC1 (configuration not stated)	-0.4%	3%	5	-7%
O=C(COC(=O)c1ccc2c(c1)OCCO2)Nc1cccc(S(=O)(=O)N2CCOCC2)c1	1.6%	-6%	-1	-1%
COc1ccc(NC(=O)CSc2nc3scc(C)c3c(=O)[nH]2)cc1	-2.9%	-11%	/	-3%

Following part:
SMILES	Rango-impB inh	Rango release inh	GLA inh pH 4.5	miR-21 reporter
COc1ccc(NC(=O)C(NC(=O)c2ccc(=O)[nH]c2)c2ccc(OC)cc2)cc1 (configuration not stated)	-1.2%	?	0	-11%
NS(=O)(=O)c1ccc(CNC(=O)c2cc(-c3ccccc3)nc3ccccc23)cc1	3.7%	-11%	-5	-9%
CCN(CC)C(=O)CC1(c2ccccc2OC)CCOC(C(C)C)C1 (configuration not stated)	-0.7%	-9%	-6	1%
Cc1cc(C)cc(NS(=O)(=O)c2ccc3oc(=O)ccc3c2)c1	-0.6%	-1%	-8	5%
CCOC(=O)c1cccc(NC(=O)c2cccs2)c1	-0.5%	15%	3	-26%
COc1ccc(OC)c(N=Cc2c(O)[nH]c3ccccc23)c1	?	?	1	-22%
Cc1csc(NC(=O)C2CCCO2)n1 (configuration not stated)	-2.3%	-3%	1	-9%
Cc1cnc(NC(=O)Cc2cccs2)s1	-0.2%	5%	6	-17%
O=C(Nc1cccc(Cl)c1)N1CCC(CO)(CCOc2ccccc2)CC1	5.6%	1%	2	0%
Cc1ccc(S(=O)(=O)N/N=C\c2ccc([N+](=O)[O-])o2)cc1	5.0%	-10%	2	-6%
O=C1CN(c2nnnn2-c2ccccc2)CCN1	0.0%	29%	-1	2%
CCOC(=O)c1sc(N)c(C#N)c1COC(=O)CNC(=O)c1cc(OC)c(OC)c(OC)c1	?	-21%	-5	-2%
COCCN1C(=O)c2oc3cc(C)c(C)cc3c(=O)c2C1c1cccc(O)c1 (configuration not stated)	-0.1%	-5%	/	/
CCCC(=O)Nc1ccc(C=C(C(C)=O)C(C)=O)cc1	-3.0%	-17%	1	2%
CCCc1nc2oc(C(=O)c3ccccc3)c(N)c2c2c1COC(C)(C)C2	?	?	11	-2%
COC(=O)C1=CN(Cc2cccs2)C=C(C(=O)OC)C1c1cccc(Cl)c1	?	-15%	?	6%
O=C(NCc1ccccc1Cl)c1cccc(OC2CCN(C(=O)C3CC3)CC2)c1	-1.5%	7%	/	20%
CCc1nc(SCC(=O)Nc2ccc(F)cc2)c2c(=O)n(C)c(=O)n(C)c2n1	4.8%	2%	/	0%
O=C(CCc1nnc(C2CCCCC2)o1)N1CCN(C2CCCCC2)CC1	-1.4%	-4%	-6	1%
O=C(CS(=O)(=O)Cc1ccccc1)Nc1ccc(Br)cc1F	-3.2%	17%	/	/
C=CC[C@H](CC(=O)N(CCO)Cc1ccccc1)C(=O)N[C@@H](COC(=O)[C@@H](CC=C)Cc1ccc(F)cc1)Cc1ccccc1	0.9%	15%	/	/
O=C(/C=C/c1cccc([N+](=O)[O-])c1)N1CCN(S(=O)(=O)c2cccs2)CC1	-1.0%	-17%	-1	0%
O=C(Oc1ccc2c(=O)c(Cl)coc2c1)c1cccnc1	?	-3%	-1	0%
COc1ccc(/C=N/NC(=O)c2ccc3ccccc3c2)cc1OS(=O)(=O)c1ccc(NC(C)=O)cc1	-0.6%	-12%	-4	27%
C=CCn1c(SCc2nc3ccccc3nc2C)nnc1-c1ccoc1C	-1.9%	-9%	3	-10%

Entries listed so far that have a COOH group:
SMILES	Rango-impB inh	Rango release inh	GLA inh pH 4.5	miR-21 reporter
O=C(O)c1cccc(-n2cccc2/C=C2/NC(=O)N(c3ccc(Cl)cc3)C2=O)c1	?	16µM*	-2	-13%
COc1ccccc1OCC(=O)O	1.0%&-0.8%	8%&-4%	2&2	-6%&-4%
CCc1nc(SCC(=O)Nc2ccc(C(=O)O)cc2)n[nH]1	-0.5%	15%	4	-3%

The results go on:
SMILES	Rango-impB inh	Rango release inh	GLA inh pH 4.5	miR-21 reporter
O=C(COc1ccc(Cl)cc1Cl)NC(=S)Nc1ccccc1C(=O)O	/	/	2	-37%
O=C(CSc1nnc(-c2ccccc2)n1-c1ccccc1)c1ccc[nH]1	-2.6%	2%	-5	-6%
C/C=C/C(=O)Nc1cccc(C2=NOC3(C2)C[C@@H](C(N)=O)N(C(=O)c2cc([N+](=O)[O-])cc([N+](=O)[O-])c2)C3)c1 (some centres not stated)	-0.4%	16%	-1	6%
Cc1ccc(-c2ccc(/C=C/C(=O)c3ccccc3)o2)cc1	?	?	8	-30%
CCOC(=O)c1nc(Nc2ccc(C(C)=O)cc2)c2ccccc2n1	-0.6%	6%	1	13%&15%
OCC[C@H]1C[C@H](O)[C@@H](O)[C@]2(Cc3ccccc3CCO2)O1	-2.4%	0%	/	/
Cc1ccc(S(=O)(=O)N(CC(O)CN2CCOCC2)c2cc(Cl)ccc2Cl)cc1 (configuration not stated)	-4.3%	-8%	4	-10%
COc1ccc(CNC(=O)c2cc3c(=O)n4ccccc4nc3n(Cc3cccnc3)c2=N)cc1	?	?	-22	-5%
C=C(C)c1cccc(C(C)(C)NC(=O)NC(c2ccccc2)c2ccc(OC)cc2)c1 (configuration not stated)	2.5%	-10%	-2	1%
COc1ccc(Cl)cc1N1C(=O)[C@@H]2C(c3cccc(OC)c3OC)=NO[C@@H]2C1=O	-4.0%	6%	-1	-2%
CCOP(=O)(c1ccccc1)C(O)c1ccc(F)cc1 (configuration not stated)	3.3%	-5%	1	0%
O=C1C2C3C=CC(C3)C2C(=O)N1Nc1c(Cl)cc(Cl)cc1Cl (configuration not stated)	-0.2%	-9%	2	-2%
Fc1ccc(-c2n[nH]c(=S)n2-c2ccc3c(c2)OCCO3)cc1	1.3%	-12%	-2	-14%
Cc1ccc(S(=O)(=O)N/N=c2\oc3ccccc3cc2C(=O)Nc2cccc(C)c2)cc1	/	/	0	-56%
COc1cccc(NC(=O)C2CCN(Cc3cnn(-c4ccccc4)c3-n3cccc3)CC2)c1	-2.2%	14%	-19	21%

An excerpt from above in order of molecular weight, ascending:
SMILES	Rango-impB inh	Rango release inh	GLA inh pH 4.5	miR-21 reporter
CS(=O)(=O)c1ccc2nc(NC(=O)C3CCCO3)sc2c1 (configuration not stated)	-8.0%	23%	4	-9%
CC(C)c1nc2c(s1)CCc1onc(-c3ccc(Cl)cc3)c1-2	4.1%	18%	/	/
NC(=O)c1ccc(NC(=O)COC(=O)CCSc2ccccc2)cc1	-1.5%	3%	-9	2%
COc1ccc(CNC(=O)c2cc3c(=O)n4ccccc4nc3n(Cc3cccnc3)c2=N)cc1	?	?	-22	-5%

Screening results as filed in PubChem.
